PINK1 expr mod = changes PINK1 expression | 0.2% of 410,000 active | PINK1 immunofluorescence, high-content cytometry, 24 h | AID 624263 | Potency, µM (highest dose often 76.6 µM), for the others: top-dose activation (PINK1 increase), actives largely listed as activators; active = well fitted activation curve with a large enough effect; inconclusive = small, poorly fitted or top-dose-only effect; inactive = flat fitted curve, though single readings scatter; cell line not stated here;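 also: potency is read from the fitted curve at half-maximal effect; % of control where 0% means no effect; nearly all actives have a fitted effect of over 65% in size; a mitochondrial uncoupler was the plate control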
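Stable cell line, 250 cells/well, 12 h attachment; compounds pinned at 5 concentrations, 24 h; CCCP control. Fixed with nuclear dye, primary antibodies 12 h at 10 degrees C, secondary plus cell stain; laser-scanning cytometer read.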
TRPML1 blocker = blocks the human TRPML1 channel; Q9GZU1; TRPML1-inducible cells, Ca2+ dye fluorescence, FDSS; stronger effect = lower value; inhibition of EC80 agonist-evoked calcium signal; activity change, negative = inhibition, % (no concentration beside the values); 0.02% of 390,000 active; in the data active means activity change below about -50%; inconclusive means about -30% to -50%; inactive means above about -30%;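 also: stimulus is agonist 54-4 at its EC80 concentration; % is scaled to controls: 0 for no effect and ±100 for the full control effect; compound concentration not given in the record; the text of the record puts the active cut at -80%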
Target sequence (Q9GZU1 whole entry, looked up): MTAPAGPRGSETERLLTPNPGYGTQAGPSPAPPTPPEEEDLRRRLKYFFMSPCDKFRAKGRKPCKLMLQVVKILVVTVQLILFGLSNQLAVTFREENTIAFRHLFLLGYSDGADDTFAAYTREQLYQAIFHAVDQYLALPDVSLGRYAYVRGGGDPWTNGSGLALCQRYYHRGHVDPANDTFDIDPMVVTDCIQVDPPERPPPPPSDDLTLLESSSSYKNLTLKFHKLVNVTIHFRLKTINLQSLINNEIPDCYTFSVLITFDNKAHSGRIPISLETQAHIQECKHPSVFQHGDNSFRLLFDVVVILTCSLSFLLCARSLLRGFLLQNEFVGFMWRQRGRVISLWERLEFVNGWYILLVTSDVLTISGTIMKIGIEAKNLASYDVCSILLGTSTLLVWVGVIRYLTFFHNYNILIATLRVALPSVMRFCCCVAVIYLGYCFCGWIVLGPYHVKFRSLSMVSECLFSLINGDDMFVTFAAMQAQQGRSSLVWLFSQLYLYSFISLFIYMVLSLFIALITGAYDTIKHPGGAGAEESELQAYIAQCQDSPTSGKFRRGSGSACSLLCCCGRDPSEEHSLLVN
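Tet-induced TRPML1-DL cells loaded with Ca8 no-wash calcium dye were read kinetically on FDSS. Compound addition was followed by EC80 agonist 54-4 (4 uM final); inhibition was read over 110 s.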
TRPML1 ag = activates the human TRPML1 channel; Q9GZU1; TRPML1-expressing cells, Ca2+ dye fluorescence, FDSS; host cell line not named in the record; reference of the full effect not given here; activation, % (no concentration beside the values); 0.12% of 410,000 active; AID 624414; in the data active = activation above about 50%; inconclusive = about 30% to 50%; inactive = below about 30%; also: 0% is about no effect; the text of the record puts the active cut at 80%
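Kinetic FDSS Ca2+ read in Tet-induced TRPML1-DL cells (ABD Ca8 dye plus quencher, 45-90 min RT loading): baseline, then compound, then 110 s agonist window; EC80 agonist 54-4 at 4uM final added afterwards for a 110 s antagonist window.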
Sfp PPTase inh = inhibitors of Bacillus subtilis Sfp phosphopantetheinyl transferase; Q9F4F7; Biochemical Sfp PPTase activity, qHTS; Potency, µM, inactives show max response, negative = inhibition, most hits filed as inhibitors; 3.5% of 310,000 active; AID 1490; active = well fitted inhibition curve with a large enough effect; inconclusive = small, poorly fitted or top-dose-only effect, or another doubt; inactive = no such curve, though single readings can be large or run the other way;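 also: the enzyme is Sfp with the accession as filed and its product quenches rhodamine fluorescence; potency is read from the fitted curve at half-maximal effect; 0% = enzyme reaction without inhibitor and -100% = no enzyme wells; top concentration of the series not given in the record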
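Sfp 15 nM + cpd, 15 min RT; start w/ rhodamine-CoA 5 uM, BHQ-2-YbbR 12.5 uM (final); 50 mM Hepes pH 7.6, 10 mM MgCl2, 0.01% NP-40, 0.01% BSA; read 525/598 nm at 0 and 30 min.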
TRPV1 potentiator = potentiators of human vanilloid receptor 1 (TRPV1); Q8NER1; TRPV1-expressing cells, Fluo-8 calcium influx, capsaicin EC20 potentiation; host cell line not named in the record; control for the full effect not named in the record; potentiation, % at 8.33 µM; 0.02% of 320,000 active; active means potentiation above 80%; inconclusive means 30% to 80%; inactive means below 30%; also: 0% is about no effect
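Cells expressing TRPV1 were dye-loaded with Fluo-8 and read kinetically: 10 s baseline, 3 min after compound (agonist portion), then 2 min after EC20 capsaicin (allosteric enhancer portion). Calcium-bound dye fluorescence at 480/520 nm.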
Menin-MLL FL inh = menin-MLL binding inhibition, fluorescein peptide; 290,000 tested, under 10 active; AID 1766; Fluorescence polarization, fluorescein-MLL peptide displacement from menin; FP activity change, % at 61.4 µM; inconclusive = falling polarisation curve, or a change in total fluorescence; inactive = total fluorescence flat and polarisation flat or rising; no compound was filed as active; the % refers to the polarisation; negative = inhibition;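 also: % of control where 0% means no effect; inhibitors lower the polarisation; unlabelled MLL peptide was the positive control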
ClpP mod = qHTS Assay for Activators of ClpP; ATP-dependent Clp protease proteolytic subunit (Bacillus subtilis (strain 168)), P80244; purified B. subtilis ClpP, FRET peptide cleavage, 20 min; Potency, µM (highest dose often 57.5 µM), for the others: at the top dose activity change, negative = active; 1.9% of 340,000 active; AID 651965, 2013; active = well fitted falling curve with a large enough effect; inconclusive = small, poorly fitted or top-dose-only effect; inactive = no such curve, though single readings can be large or run the other way; also: potency is read from the fitted curve at half-maximal effect; the source files actives as falling curves though it sought activators and does not explain the sign; nearly all actives have a fitted effect of over 65% in size; many hits overshoot -100%
Target sequence (P80244 whole entry, looked up): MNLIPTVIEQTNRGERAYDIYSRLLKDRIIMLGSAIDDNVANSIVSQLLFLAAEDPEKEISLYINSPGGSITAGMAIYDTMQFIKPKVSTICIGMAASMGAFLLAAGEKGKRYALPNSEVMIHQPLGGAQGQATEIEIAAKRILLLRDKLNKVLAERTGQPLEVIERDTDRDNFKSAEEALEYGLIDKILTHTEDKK
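ClpP 10 microg/mL final, pH 8 Tris/KCl buffer with BSA, glycerol, Tween-20; compound pinned in; FRET-FV substrate; RT 20 min; Ex320/Em430; ΔFRET vs ADEP 5.8 microM, DMSO, no enzyme.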
The depositor's hits bear a star; ? = inconclusive; · = no result given; & = joins results of further samples; [ ] = dose if it differs, or a comment.

SMILES	PINK1 expr mod	TRPML1 blocker	TRPML1 ag	Sfp PPTase inh	TRPV1 potentiator	Menin-MLL FL inh	ClpP mod
CSc1nc(N)nc2c1ncn2CC(=O)NCCCc1ccccc1	0.0%	-5	-0.3	·	·	·	?
CCSc1nc(-c2cccs2)nc2ccccc12	9.6%	-17	3.3	-7%	4	1.1	·
CCC(CC)C(=O)Nc1cc(C)c2c(=O)oc3ccccc3c2n1	5.4%	9	-0.4	-13%	·	9.7	-22%
Cc1ccc(S(=O)(=O)N(C)Cc2ccc(C(=O)NN=C3C4CC5CC(C4)CC3C5)cc2)cc1	3.6%	3	1.4	4%	1	5.4	-2.6%
Cc1ccc(S(=O)(=O)N(C)C)cc1NC(=O)c1ccc(-n2cncn2)c([N+](=O)[O-])c1	3.3%	-15	2.1	·	-1	·	0.8%
CCc1cc(=O)oc2c(CNCc3c(F)cccc3Cl)c(O)ccc12	2.7%	?	1.0	18%	-9	-1.4	3.5%
COc1ccc(NC(=O)CN(C)S(=O)(=O)c2cccc3nsnc23)cc1	0.8%&-1.3%	8&22	3.6&-0.3	20%	1	-1.0	1.7%&-0.3%
Cc1ccc(OCC(=O)NNC(=O)CCc2ccccc2)c(Br)c1	8.8%	-8	-1.0	6%	-10	0.0	1.1%
O=C(NCc1ccccc1)c1cc(-c2cccc(Cl)c2)on1	1.7%	0	-0.7	·	·	·	0.5%
COCCN1CCc2c(C)nc3c(-c4ccc(OC)c(OC)c4)cnn3c21	3.1%	1	0.0	0%	14	2.2	-16%
Cc1cccc(C(=O)O/N=C/c2c(N3CCOCC3)n(C)c3ccccc23)c1	·	·	·	6%	-24	1.9	·
CC(=O)c1ccc(OCc2cc(C(=O)N(C)CCN3CCOCC3)no2)cc1	0.2%	-6	0.0	7%	0	·	-0.1%
CCOC(=O)CCC(=O)Nc1ccc(S(=O)(=O)N2CCCCC2)cc1	4.0%	8	-0.3	7%	-11	-2.1	0.4%
Cc1cc[n+](CC(=O)N2CCCc3ccccc32)cc1	0.7%	-23	-0.6	14%	-5	-2.2	·
CCCCN(C(=O)CCC(=O)Nc1cc(C)on1)C(C(=O)NC(C)(C)C)c1cccc(OC)c1OC (centres undefined)	0.7%	-14	0.0	20%	-2	3.0	0.7%
O=C(CSc1nc2ccccc2c(=O)n1-c1ccc(F)cc1F)Nc1ccc2c(c1)CCC2	1.7%	27	0.4	1%	-16	-1.6	-3.1%
O=C(c1ccc2c(=O)n3c(nc2c1)CCC3)N1CCN(S(=O)(=O)c2ccccc2Br)CC1	-1.0%	3	-0.3	·	·	·	-3.1%
COc1ccc(F)cc1S(=O)(=O)Nc1cccc(-c2ccc(N3CCCCCC3)nn2)c1	-1.0%	1	-0.5	·	·	·	-4.1%
CC(C)(C)Cc1c(-c2cccc(Cl)c2)nc2ccc(Br)cn12	?	·	-0.5	·	·	·	-8.4%
O=C(Cc1ccc(Cl)cc1)NCC(=O)N1CCCCCC1	0.2%	3	0.3	-9%	-8	7.1	·
COc1ccc(-c2cn(-c3ccc(OC)cc3)c(=S)[nH]2)cc1	0.6%	1	-1.5	?	?	3.0	-1.6%
Cc1ccc(S(=O)(=O)N(CC(=O)Nc2cccnc2)c2cccc(Br)c2)cc1	-0.2%	-4	2.2	6%	2	·	-1.2%
OCCN1CCN(c2ncnc3c2c(-c2ccccc2)cn3-c2ccc(Br)cc2)CC1	-2.1%	15	0.8	22µM*	-7	1.0	1.0%
CC(C)(C)C(=O)Cn1c(NCCO)nc2ccccc21	-1.3%	1	0.5	9%	16	0.8	-2.5%
O=C(OCc1nc2ccccc2[n+]([O-])c1C(=O)c1ccccc1)c1cccs1	0.2%	-10	1.6	-8%	-4	2.5	0.9%
CCNC(=O)C1(C)CCCN(C(=O)c2ccc(OC)c(F)c2)C1 (centres undefined)	2.9%	·	-0.8	·	·	·	1.3%
CC(C)(C)OC(=O)N1CCC(c2c(C(=O)NCc3ccccc3)cnn2-c2ccc(F)cc2)CC1	-0.2%	?	2.3	·	·	·	-1.7%
COc1cc(C2SCC(=O)N2CCc2ccc(OC)c(OC)c2)ccc1O (centres undefined)	1.0%	-2	-0.4	-15%	9	0.3	·
Cc1ccc(S(=O)(=O)N2Cc3ccccc3CC2C(=O)N(C)C)cc1 (centres undefined)	0.3%	-1	-0.6	·	·	·	1.8%
NC(=O)C1CCN(c2ncnc3c2cnn3-c2cccc(Cl)c2)CC1	2.6%	-5	1.8	·	·	·	-11%
O=C(c1ccccc1)c1ccc(OCCOCCN2CCN(Cc3ccccc3)CC2)cc1	2.0%	-6	-0.3	56µM*	-1	-4.4	·
CS(=O)(=O)Nc1ccc(Oc2ncccn2)cc1	-1.3%	62	-0.1	20%	13	2.9	·
Oc1ccc(/C=N/NC2=NCCCCC2)c(O)c1	0.1%	0	0.0	8%	-1	2.5	-9.4%
CCO[C@@H]1OC(C(=O)N2CCN(Cc3ccc4c(c3)OCO4)CC2)=C[C@H](c2ccc(C(F)(F)F)cc2)[C@H]1CCCO	7.7%	1	-0.5	3%	2	0.0	0.7%
CC1CCc2c(sc3nnn(Cc4cccc(C(=O)OC(C)C)c4)c(=O)c23)C1 (centres undefined)	4.9%	-6	1.5	·	·	·	1.9%
COc1ccccc1-c1ccc2c(c1)C(C)(Cc1cc(Cl)ccc1C(F)(F)F)C(=O)N2 (centres undefined)	1.5%	·	-0.8	·	·	·	-13%
CN(C)/C=N/c1sccc1C(N)=O	0.5%	-6	-0.3	6%	-1	-1.2	-5.3%
COc1ccc(-c2nn(C)c(=O)c3ccccc23)cc1CNS(C)(=O)=O	-1.9%	1	0.5	10%	-15	-6.6	-7.3%
COc1nc2c(C)cccc2cc1-c1noc(-c2ccncc2)n1	·	·	·	8%	7	2.2	·
CC1(C)OC(=O)C(=C2CCCN2)C(=O)O1	1.6%	16	0.3	5%	10	-7.2	-1.3%
O=C(c1cc(C(F)(F)F)cc(C(F)(F)F)c1)N1CCC2(CC1)CCN(c1ccccn1)CC2	0.3%	·	·	24%	·	-3.5	·
COCCOC(=O)C1=C(C)NC2=C(C(=O)CC(C)(C)C2)C1c1ccc2c(c1)OCO2 (centres undefined)	·	9	0.7	-1%	·	1.7	-3.2%
Cc1ccc(-c2cc(C(=O)NCc3cnn(C)c3C)c3cc(Br)ccc3n2)cc1	1.7%&8.7%	-3&44	0.4&1.7	?	-8	3.8	-13%&-24%
CCOC(=O)c1cc2c(=O)[nH]ccc2nc1C	-4.1%[38.3 µM]	6	0.5	-16%	6	3.5	?
Cc1ccc2nc(Nc3ncc4c(n3)CC(C)(C)CC4=O)nc(C)c2c1	1.2%	17	0.6	5%	2	?	-3.0%
CCOC(=O)CSc1nc2c(c(=O)n(C)c(=O)n2C)n1CCCc1ccccc1	-1.0%	-22	0.1	11%	13	3.3	0.7%
COc1ccc(OC(F)(F)F)cc1CC1(C)C(=O)Nc2ccc(-c3ccsc3)cc21 (centres undefined)	-1.2%	·	-0.7	·	·	·	-0.6%
COc1ccc(C(=O)Nc2ccc(S(=O)(=O)NC(C)=O)cc2)cc1	5.5%[38.3 µM]	-2	2.5	-16%	-4	6.9	0.0%
C/C(=N\Nc1ccccn1)c1ccc(Br)s1	0.0%	43	1.4	·	·	·	1.4%
CCCCC/C=N/NC(=O)c1[nH]c2ccc([N+](=O)[O-])cc2c1C	-0.6%	5	-0.9	-7%	29	-1.3	·
COC(=O)c1cc(=O)n(Cc2ccccc2)c(=NCc2ccccc2)s1	·	·	·	3%	14	0.4	·
COc1cccc(N2CC(NS(=O)(=O)c3ccc4ccccc4c3)CC2=O)c1 (centres undefined)	1.3%	5	-0.3	·	-9	·	·
CCCCCNC(=O)Cc1ccc(OC)cc1	0.4%	-11	-0.8	22%	-6	5.9	-1.3%
O=C(Nc1ccc(Cl)cc1)C1CCC(=O)N1Cc1ccccc1Cl (centres undefined)	-2.6%	4	-0.3	5%	-4	0.2	-2.1%
O=C(Cc1cccs1)NCCn1ccc2ccccc21	0.1%	14	-0.4	12%	-13	-2.0	-6.1%
Cc1cccc(NC(=O)CSc2nccn2Cc2ccco2)c1C	-0.4%	-3	1.1	6%	7	3.4	-2.0%
N#Cc1c(NC(=O)CSc2nnc(-c3ccccc3)o2)sc2c1CCCC2	16%[38.3 µM]	19	1.9	?	2	2.2	-6.2%
CSc1ccccc1OCc1cc(C(=O)NC(C)Cc2cccc(C)n2)no1 (centres undefined)	2.8%	58	3.0	-1%	25	-0.3	-0.8%
COc1ccc(C2(C)NC(=O)N(CC(=O)c3cc(C)n(C4CC4)c3C)C2=O)cc1 (centres undefined)	1.9%	-1	18	·	-13	·	1.6%
CCCC(=O)N1CCC1(C)C(=O)NS(=O)(=O)c1ccc(C)cc1 (centres undefined)	-0.6%	·	-0.3	·	·	·	-3.6%

Next part.
SMILES	PINK1 expr mod	TRPML1 blocker	TRPML1 ag	Sfp PPTase inh	TRPV1 potentiator	Menin-MLL FL inh	ClpP mod
COc1cc(/C=C/C(=O)OCC(=O)N2CCCc3ccccc32)ccc1OCC#N	-0.4%	8	0.4	·	1	·	-13%
CC(/C=C/c1ccccc1)=N/NC(=O)c1cccc(Br)c1	8.1%	7	1.7	30%	3	1.8	·
O=S(=O)(c1cc(Br)ccc1Br)N1CCCCCC1	2.6%	58	2.7	-9%	26	-1.2	·
Cc1ccc(CNC(=O)c2cc3ccc4cccnc4c3[nH]2)cc1	0.5%	-13	0.5	·	·	·	96%
CCOC(=O)c1nc(C)[nH]c1C(=O)OCC	-4.2%	0	0.0	-6%	1	2.8	-2.1%
COc1ccccc1NS(=O)(=O)c1ccc(C)c(C(=O)NCCCN2CCCC2=O)c1	1.4%	-21	1.0	·	6	·	·
O=C(Nc1ccc(-n2cnnn2)cc1)C1CCCN1C(=O)NC1CCCCC1 (centres undefined)	1.0%	-16	0.6	0%	-2	0.5	-1.2%

Screens from PubChem.
